Tg IFNy HTS – inhibitors of Toxoplasma gondii growth with IFN-gamma; hit rate 3.8% among 69,000; AID 1259416; activity change, negative = inhibition, %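 (about 20 µM by stock and volumes)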; Toxoplasma gondii growth in IFN-gamma-treated host cells; active compounds read low; reference of the scale not given here;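 active = below -70%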;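 note: host cells are HeLa cells infected with Toxoplasma gondii; parasite growth read as luciferase light; one replicate is shown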
Active calls of the source: *; i = inactive; & = joins results of further samples. Only part of the results is shown; count on the stated rates, not on these rows.

SMILES	Tg IFNy HTS
Cc1occc1C(=O)N1CCNCC1C(=O)NCc1ccccn1 (stereo unspecified)	-1
COc1cc(OC)cc(C(=O)N2CCC3(CC2)Nc2ccc(Cl)cc2-n2cccc23)c1	-9
Nc1nc2c(cnn2CCc2ccccc2)c2nc(-c3ccco3)nn12	-12&-17
NC(=S)N/N=C/c1ccncc1	11
CC(NC(=O)C(=O)NCCc1csc(-c2ccc(F)cc2)n1)c1ccccc1 (stereo unspecified)	69
COc1ccc(OC)c(C2CCN(c3ncnc4[nH]ccc34)C2)c1 (stereo unspecified)	-56
Cc1c(S(=O)(=O)N2CCN(c3nsc4ccccc34)CC2)cnn1C(F)F	15
COC[C@H]1CCCN1Cc1ccc(C(=O)Nc2cnn(C)c2)cc1	3
COCCN(Cc1cccs1)Cc1coc2ccc(C)cc2c1=O	-6
O=C(CCC1Nc2c3ccccc3nc(=S)n2C1=O)N1CCN(c2ccc([N+](=O)[O-])cc2)CC1 (stereo unspecified)	10
CC1C=NC(S(=O)(=O)N2CC[C@@H]3[C@@H](CO)N(C)c4ccc(C5=CCCCC5)cc4[C@@H]32)=N1 (stereo partly specified)	0
C=CCN1C[C@H]2CN(Cc3ccc4c(c3)OCO4)CCC[C@@]2(C(=O)O)C1	-5
Cc1ccc(S(=O)(=O)N2[C@@H]3CNC[C@H]2C3c2ccc(/C=C/c3ccccc3)cc2)cc1 (stereo partly specified)	-44&-46
CC(C)c1ccc(CN2C[C@@H]3OCCN(C(C)C)[C@H]3C2)cc1	0
Cc1ccc(-c2cccc(C(=O)N(C)Cc3nncn3C(C)C)c2)o1	3
CSc1nnc(CC2CCN(Cc3cccc4nsnc34)CC2)n1C	9
O=C(NCc1cccc(C(F)(F)F)c1)c1cn2c(n1)CCCC2	-31
C[C@@H]1CCCCO[C@H](CN(C)S(C)(=O)=O)[C@@H](C)CN([C@@H](C)CO)C(=O)c2cc(NC(=O)NC3CCCCC3)ccc2O1	7
Cc1nn(C)c(C)c1CNC(=O)c1cccc2[nH]cc(CN3CCCC3)c12	24
CC(C)(C)c1csc(N/N=C/c2cccnc2)n1	221
COc1ccc(-c2ccccc2[C@@H]2[C@H](C#N)N(C(=O)c3cccnc3)[C@H]2CO)cc1	-13
CN1CCN2CCN(C(=O)c3cccc(-c4ncc[nH]4)c3)CC2C1 (stereo unspecified)	0
CCn1ncnc1CN1CCC2(CCCN(C(=O)COc3ccccc3)C2)C1 (stereo unspecified)	0
Cc1ccc(-c2cccc(CC3(C(=O)N(C)C)CCN(C(=O)Cn4cc(C)cn4)C3)c2)cc1 (stereo unspecified)	-4
COc1ncc(C(=O)N2CCC3(CCNCC3)CC2)cn1	5

The list continues:
SMILES	Tg IFNy HTS
Cc1cnn(Cc2nc(-c3ccc(NC(=O)Cc4ccccc4C)cc3)oc2C)c1	133
COc1ccc(-c2nnc3sc(C4COc5ccccc5O4)nn23)cc1OC (stereo unspecified)	-41
CN(C)C(=O)N1CCC(C(=O)N2CCCC(C(=O)c3ccc4c5c(cccc35)CC4)C2)CC1 (stereo unspecified)	-16
Cc1nc(CN(C)C(=O)c2ccc(CSc3ccccn3)cc2)no1	6
CC(C)N(CCC(N)=O)Cc1ccnc2ccccc12	-8
CCN1c2cc(F)ccc2C(=O)NC12CCN(C(=O)c1ccc(OC)cc1)CC2	68
Cc1oc(-c2ccc(F)cc2)nc1CN(C)Cc1cccc(C(F)(F)F)c1	-7
CCN1CCN(Cc2cc(C(=O)N(C)CC3CCCCO3)no2)CC1 (stereo unspecified)	-4
CN1CCCn2c(nc(CNC(=O)c3nccn3C)cc2=O)C1	-15
COc1ccccc1-c1ccc([C@@H]2[C@@H](CO)N3CCCCN(C(=O)c4cccnc4)C[C@H]23)cc1	15
COc1ccc(-c2nc(NCC3CCN(Cc4cccc(F)c4)CC3)c3ccccc3n2)cc1	-81
O=C(Cc1cccnc1)N1CC2(C1)[C@H](c1ccccc1)[C@@H](CO)N2C(=O)C1CCOCC1	14
CC(=O)N[C@H]1C[C@@H](c2cccc3cnccc23)O[C@@H](C2CCCCC2)C1	-43
CCOc1ccc(CC(=O)N2CCN(S(=O)(=O)c3cc4c5c(c3)CCN5C(=O)CC4)CC2)cc1	2
O=C1NCC2(CCCN(C(=O)c3ccc(Oc4ccccc4)o3)CC2)O1 (stereo unspecified)	2
Cc1nc(OCC(=O)Nc2ccc(F)c(Cl)c2)c2ccccc2n1	-10
CCCS(=O)(=O)N1CC[C@@H]2C(=O)N(c3ccsc3)CCO[C@@H]2C1	2
O=C(Cn1cnnn1)N1C2CCC1CC(c1ccc(F)cc1)C2 (stereo unspecified)	-18
CCOc1ccc(C(=O)NCCc2sc(-c3ccc(OC)cc3)nc2C)cc1	77
Cc1noc(C)c1NC(=O)Nc1cccc2c1O[C@H](CN(C)Cc1ccc(C(=O)Nc3ccccc3N)cc1)[C@H](C)CN([C@@H](C)CO)C2=O	14
c1coc(CN2CC3CC(C2)CN(CC2CCOC2)C3)c1 (stereo unspecified)	23
COc1ccc(-c2ccccc2C(N)=O)c(C)c1	2
Cc1cc2nc(C(=O)N3CCCC4(CC3)CNC(=O)O4)cc(C)n2n1 (stereo unspecified)	-3
O=C(C[C@@H]1CC[C@H]2[C@@H](COC[C@H](O)CN2C(=O)c2ccncc2)O1)Nc1ccc(-c2ccccc2)cc1	-43
COc1cc(NC2CC3(CCN(C(C)=O)CC3)Oc3ccccc32)ncn1 (stereo unspecified)	9

New compounds follow.
SMILES	Tg IFNy HTS
CC(=O)N(C)Cc1ncn2c1CN(C(=O)c1ccc[nH]1)CCC2	-4
CCc1ccccc1NC(=O)c1c(O)c2cccnc2n(-c2ccc(F)cc2)c1=O	-79*
O=C(Cc1cccs1)NC1CCCC1	-18
CN1CC2(CCCN(Cc3cccc(OCC(=O)O)c3)C2)OC1=O (stereo unspecified)	2
O=C(C[C@@H]1CC[C@@H]2[C@H](COC[C@H](O)CN2C(=O)Cc2ccccc2)O1)NC1Cc2ccccc2C1	50
CC(=O)NC(CO)C(=O)NCc1cccnc1N1CCN(C)CC1 (stereo unspecified)	-23
Cc1nccn1C[C@@H]1CCc2c(c3ccccc3n2C)C1=O	10
COc1ccc(OC)c(S(=O)(=O)NCCc2sc(-c3ccc(OC)c(OC)c3)nc2C)c1	150
CC=Cc1ccc2n(c1=O)C[C@@H]1[C@@H](CO)[C@H](C(=O)NCc3ccc4c(c3)OCO4)[C@H]2N1C(=O)COC (mixture of isomers)	-5
COCCNC(=O)C[C@H]1COC[C@H]2CN(Cc3nccs3)C[C@@H]12	-3
Cc1nc2c(c(=O)[nH]1)CCN(C(=O)Cc1nc(C)sc1-c1ccccc1)C2	-2
O=C(Nc1ccc(F)cc1F)N1CCCN(CCOc2ccccc2)CC1	9
Cc1ccc(Nc2nc3ccccc3s2)c(C)c1	i
COc1cc(CNC(=O)C2(C)CCN(C(=O)CC3CCCC3)CC2)cc(OC)c1	1
CN(CC(=O)N1CCCC(c2nn(C(C)(C)C)c3ncccc23)C1)C1CCS(=O)(=O)C1 (stereo unspecified)	-29
CC(=O)Nc1ncc(S(=O)(=O)Nc2ccc3c(c2)N(C)C(=O)CO3)s1	8
COc1ccc2c3c(n(C)c2c1)[C@@H](CO)N(C(=O)Nc1ccc(F)cc1)CC31CCN(Cc2ccccn2)CC1	-37
C=C1C2(C(=O)N3CCC(Oc4ccccc4F)CC3)CCC(C2)C1(C)C (stereo unspecified)	25
Cc1ccc(S(=O)(=O)NC(=O)Nn2c(C)nnc2C)cc1	12
CCOc1ccccc1-c1nc2c(C(C)(C)C)nn(C)c2c(=O)[nH]1	8
CCOc1ccccc1Nc1nc(-c2nnc(-c3ccccc3)o2)nc2ccccc12	-52
COc1cc2c(cc1OC)C(c1cc3ccccc3oc1=O)=NC(C)(C)C2	-4&-45
O=C1CCCc2nc3c(cc21)C(=O)CCC3	-8
Cc1nn(Cc2cccc3ccccc23)c(C)c1NC(=O)COc1ccc(F)cc1	1
C=CCN1C(=O)CCCC12CCN(C(=O)c1ccc(C)cc1)CC2	-31

(listing goes on)
SMILES	Tg IFNy HTS
CCC(CC)NC(=O)c1ccc2nnc(C3CN(C(C)=O)CCN3C)n2c1 (stereo unspecified)	-4
Cc1c(-c2nccn2Cc2cn3ccccc3n2)c(=O)n(-c2ccccc2)n1C	-42
Fc1ccc2c(c1)C(c1cccnc1)=NNC(c1cccs1)=N2	-8
CCS(=O)(=O)N1CCC(n2nc(-c3ccoc3C)oc2=O)CC1	21
CCOc1ccc(NC(=O)CC2C(=O)N(c3ccccc3)C(=O)N2Cc2cccnc2)cc1 (stereo unspecified)	-8
CCOC(=O)N1CCC(N2C[C@H](N(C)C)C[C@H]2C(=O)OC)CC1	6
CCn1c(C2CCCN(C(=O)NCc3ccc(Cl)cc3)C2)n[nH]c1=O (stereo unspecified)	5
COc1ccc(CN2CC[C@@H]3O[C@@H](C(=O)NCC4CC4)CC[C@@H]32)cc1	-5
O=C(Cn1c(=O)cc(C(=O)N2CCCC2)c2ccccc21)Nc1ccc(F)cc1F	5
FC(F)(F)c1cnc(CN2CCSCC2)c(Cl)c1	7
c1cc(-c2nccn2CCC2CCCCO2)cc(-n2cccn2)c1 (stereo unspecified)	-51
Fc1ccc(-c2nnc(-c3nc(NC4CCCCC4)c4ccccc4n3)o2)cc1	-104*
COc1cc(S(=O)(=O)N2CCOCC2)ccc1NC(=O)CC(C)n1cccn1 (stereo unspecified)	-7
CN(Cc1cc(-c2ccccn2)no1)S(=O)(=O)NCc1ccccc1	4
COc1ccccc1-c1noc(-c2c(O)c3ccccc3n(C)c2=O)n1	-14
O=C(Nc1ccc(F)cc1)N1CC(=O)N2[C@H](CO)[C@@H](c3ccc(-c4cccc(F)c4)cc3)[C@H]2C1	-32
COc1cccc(-c2nccc(C(F)(F)F)n2)c1OC	-2
CC(C)CCOc1ccc(C2(C)NC(=O)N(CN3CCOCC3)C2=O)cc1 (stereo unspecified)	-7
CCCn1cnnc1CNC1CCN(c2ccc3c(c2)OCO3)CC1	-7
CS(=O)(=O)NCCc1ccncc1	8
Cc1nnc(SCC(=O)Nc2cc(C(F)(F)F)ccc2N2CCOCC2)s1	-31
COc1ccc(C(=O)N2CC[C@@H](c3ccc(F)cc3)[C@H](O)C2)c(O)c1	8
Cc1nc2ccccc2n1C(=O)N(C)C	-2
CCOc1ccc(CC(=O)N2CCC3(CC2)Nc2cc(C)ccc2-n2cccc23)cc1OCC	10
CC(=O)N1C[C@H]2CN(C(=O)Cc3ccccc3)CCC[C@@]2(C(=O)O)C1	-6

The list goes on.
SMILES	Tg IFNy HTS
C=CCn1c2ccccc2c2ccccc21	84
CN1C(=O)CCc2cc(NC(=O)c3cc(F)cc(F)c3)ccc21	186
Cc1ccc2[nH]c3c(=O)n(CC(=O)N4CCN(c5ccccn5)CC4)cnc3c2c1	24
CN(C)C(=O)[C@H]1[C@H](CO)[C@H]2Cn3c(cccc3=O)[C@@H]1N2CC1CCOCC1	5
CN(C)C(=O)C[C@@H]1C=C[C@@H](NC(=O)c2ccc(F)cc2)[C@H](CO)O1	14
Cc1ccsc1-c1cn(CC(CO)Cc2ccco2)nn1 (stereo unspecified)	-4
CC(C)Cc1cn(C2CCN(c3cncc(C(=O)N4CCCC4)n3)CC2)nn1	-5
CC(C)(C)c1ccc(S(=O)(=O)/C=C/C#N)cc1	4
O=C(NC[C@H]1[C@H](c2ccccc2)[C@@H](CO)N1Cc1cccnc1)c1ccccn1	12
CN1CCN(CCCCN2C(=O)CN(/N=C/c3ccc(-c4ccc(Cl)cc4)o3)C2=O)CC1	-7
CC(C)C1COC2(CCCN(C(=O)c3cnccn3)C2)C1 (stereo unspecified)	-10
COC(=O)c1sccc1NC(=O)Nc1cc(C)oc1C(F)(F)F	-51
Cc1nc2nc(CC(=O)N3CCN(c4ccccc4)CC3)nn2c(C)c1Cl	20
CCC(c1ccc(OC)cc1)N(CC)C(=O)c1cccc(N2CCNC2=O)c1 (stereo unspecified)	-11
Cc1ccccc1CN1C[C@@H]2C[C@H](C(=O)Nc3ccccc3)[C@@H](C1)O2	-57
CCn1c(=O)c(-c2nc(-c3ccc(Cl)c(F)c3)no2)c(O)c2ccccc21	71
Cc1ncsc1CN(Cc1ccccc1)C(=O)c1ncc[nH]1	1
CC(C)C(=O)N1CC[C@H]2CN(CC(=O)N(C)C)S(=O)(=O)[C@@H]2CC1	1
CCn1c(=O)c(-c2nc(-c3ccc(Cl)cc3)no2)c(O)c2ccccc21	32
O=C(NC1CC1)C1CCN(C2CCN(C(=O)Cc3ccc(F)cc3)CC2)CC1	9
CCCC#Cc1ccc2c(c1)[C@@H]1[C@@H](CCN1C(=O)CC1CC1)[C@@H](CO)N2C	13
